Screening results deposited in PubChem by National Center for Advancing Translational Sciences (NCATS).
GLA inh pH 4.5: blocks human alpha-galactosidase A at pH 4.5; 230,000 tested, under 10 active; activity change, negative = inhibition, % at 105 µM; purified enzyme, 4-MU-alpha-Gal fluorescence, pH 4.5; AID 1467; P06280; inconclusive = small, poorly fitted or top-dose-only inhibition, or a rising curve; inactive = flat fitted curve, though single readings scatter; no compound was filed as active;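 note: 0% = full activity with enzyme and -100% = basal without enzyme; dose as in the result columns while the protocol names 77 µM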
miR-21 reporter: miR-21 reporter, rising signal. HeLa miR-21 FLuc reporter, luciferase, 48 h. Potency, µM (series often up to 38.3 µM), inactives show at the highest dose reporter change, positive = more light. 340,000 tested, under 10 active; active = well fitted rising curve with a large enough effect; inconclusive = small, poorly fitted or top-dose-only effect; inactive = no such curve, though single readings can be large or run the other way;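 note: % of control where 0% means no effect; miR-21 action dims this reporter so a rising signal means less miR-21 action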
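HeLa miR-21-FLuc reporter line, endogenous miR-21; 2000 cells/well in DMEM/10% FBS; compound titration up to ~40uM final, 48 h, 37 degree Celsius; luciferase detection reagent, 15 min lysis, CCD luminescence.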
Rango release inh: inhibition of RanGTP-driven Rango-importin beta dissociation | Biochemical FRET Rango-importin beta, RanGTP-induced dissociation | 340,000 compounds, 0.071% hits | Potency, µM (doses to about 46.1 µM), for the others: at the highest dose activity change, negative = inhibition; active means falling FRET ratio curve, often poorly fitted, with flat reads before Ran was added; inconclusive means other falling curves, or compound fluorescence or quenching; inactive means flat or rising ratio curve;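 note: potency is the fitted concentration of half-maximal effect; % of control where 0% means no effect; nearly all actives have a fitted effect of over 45% in size; -100% = wells without RanGTP and RCC1; the record marks most hits as doubtful in a second field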
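FRET read at 45 min, room temperature: inhibitors block the CFP/YFP signal rise when RanGTP (0.6 uM Ran, 2 mM GTP, 0.2 uM RCC1) frees Rango (0.1 uM) from importin beta (0.25 uM). Pre-read after 5 min compound exposure flags interference.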
Rango complex inh: prevents formation of the Rango-importin beta complex; Q14974; Rango CFP/YFP FRET sensor + importin beta, 45 min; Potency, µM (top dose mostly 92.2 µM), without a hit: at the highest dose inhibition of complex formation; 340,000 compounds, 0.031% hits; active = rising FRET ratio curve, often small or poorly fitted; inconclusive = mostly compound fluorescence or quenching in the first reads; inactive = flat curves in all reads;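 note: potency is the fitted concentration of half-maximal effect; 0% = DMSO wells and 100% = buffer wells lacking importin beta; nearly all actives have a fitted effect of over 15% in size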
Target sequence (Q14974 whole entry, looked up): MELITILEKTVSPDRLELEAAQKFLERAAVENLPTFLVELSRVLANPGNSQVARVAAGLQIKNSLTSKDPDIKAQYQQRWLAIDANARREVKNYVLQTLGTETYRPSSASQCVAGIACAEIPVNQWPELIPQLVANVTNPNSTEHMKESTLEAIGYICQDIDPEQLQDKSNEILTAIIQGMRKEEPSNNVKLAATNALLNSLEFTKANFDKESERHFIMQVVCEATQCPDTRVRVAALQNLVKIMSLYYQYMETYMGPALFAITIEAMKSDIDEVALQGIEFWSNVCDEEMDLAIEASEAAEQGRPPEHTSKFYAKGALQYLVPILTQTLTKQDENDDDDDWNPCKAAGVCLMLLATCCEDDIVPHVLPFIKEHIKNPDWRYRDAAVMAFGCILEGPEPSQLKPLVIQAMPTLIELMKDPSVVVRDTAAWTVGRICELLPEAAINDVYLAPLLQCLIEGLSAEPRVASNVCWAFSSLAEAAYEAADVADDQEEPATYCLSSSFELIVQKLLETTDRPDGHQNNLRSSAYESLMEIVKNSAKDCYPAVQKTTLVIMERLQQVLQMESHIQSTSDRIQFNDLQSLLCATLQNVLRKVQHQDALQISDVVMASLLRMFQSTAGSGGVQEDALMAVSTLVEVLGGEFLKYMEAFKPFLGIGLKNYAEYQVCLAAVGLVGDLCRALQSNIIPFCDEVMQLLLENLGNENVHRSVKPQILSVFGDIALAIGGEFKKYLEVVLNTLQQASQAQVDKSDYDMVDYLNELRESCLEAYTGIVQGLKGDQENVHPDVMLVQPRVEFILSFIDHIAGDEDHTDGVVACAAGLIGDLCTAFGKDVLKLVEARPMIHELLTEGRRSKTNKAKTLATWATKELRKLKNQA
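FRET biosensor (snurportin 1 IBB flanked by EYFP and cerulean), 50 nM, with compound 5 min, then 0.125 microM importin beta in PBS, 1 mM DTT, 0.02% Tween-20, 0.1% BSA. CFP/YFP ratio read after 45 min at room temperature; pre-read flags interference.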
* hit, by the source's call; ? = inconclusive; · = not tested or not shown; & = joins results of further samples. Some of the compounds tested; the hit share may differ from the screen's.

GLA inh pH 4.5	miR-21 reporter	Rango release inh	Rango complex inh	compound
·	-11%	1%	1.7%	COc1cccc(C2c3[nH]c4ccccc4c3C[C@H]3C(=O)N(CCCO)CC(=O)N23)c1OC (stereo not given in full)
·	1%	15%	-4.8%	CC(C)(CO)CN1CCC(n2nccc2NC(=O)C2CCCC2)CC1
0	-17%	8%	0.3%	COc1cc2ncnc(NCc3ccco3)c2cc1OC
·	-14%	0%	2.9%	Cc1oc(-c2ccccc2Cl)nc1CS(=O)CC(=O)NCCc1ccccc1 (stereo not given)
·	-49%	6%	-1.0%	Nc1ncnc2nc(SCC(=O)Nc3ccccc3F)[nH]c12
·	-11%	-14%	-0.7%	S=c1nc2ccccc2c2nc(-c3ccccc3Br)[nH]n12
8	-4%	15%	2.4%	COC(=O)N/N=C/c1cccnc1
5	-31%	-4%	-2.4%	COc1ccc(C(=O)N/N=C(\C)Cn2cnc([N+](=O)[O-])n2)cc1
-3	0%	·	·	Cc1cc(C)cc(N(C(=O)CCC(=O)Nc2ccccn2)C(C(=O)NC(C)C)c2ccc(O)cc2)c1 (stereo not given)
·	-5%	?	-3.5%	CN1CCN(CC(=O)c2ccccc2F)CC1
·	?	-3%	-0.1%	O=C(Nc1ccc2ccccc2c1)c1ccccc1O
1	-2%	0%	-1.5%	Cc1cc(=O)oc2c(C(=O)/C=C/c3ccccc3)c(O)ccc12
1	-10%	-10%	-1.8%	N#CCc1nn(-c2ccc(Cl)cc2)c(N)c1C#N
·	-4%	-27%	?	COC(=O)c1ccc2[nH]c([C@H](C)O)c([C@H](C)O)c2c1
·	-1%	-25%	?	Cc1ccnc(SC2CC(=O)N(c3ccc(F)cc3)C2=O)n1 (stereo not given)
·	-7%	-7%	-0.3%	Cn1c(NCCO)nc2c1c(=O)n(Cc1ccc(F)cc1)c(=O)n2C
-6	-62%	-7%	?	CC(=O)C(C)Oc1ccc2c3c(c(=O)oc2c1)CCCC3 (stereo not given)
·	-2%	-14%	?	O=C(Cn1nc(Cl)nc1Cl)c1ccc(F)cc1
-11	2%	-22%	1.2%	Cc1cc(C)c(S(=O)(=O)N2CCCOC2CNC(=O)C(=O)NCCC2=CCCCC2)c(C)c1 (stereo not given)
·	-2%	?	?	Cc1c(C(=O)O)sc2nc(/C=C/c3cccc(O)c3)[nH]c(=O)c12
-29	-8%	2%	-0.2%	COc1ccccc1N(CC(O)CN(c1ccccc1)S(C)(=O)=O)S(=O)(=O)c1ccccc1 (stereo not given)
9	-10%	-1%	-0.9%	Cc1c(Cl)c([N+](=O)[O-])nn1CCCC(=O)Nc1c(Cl)cccc1Cl
3	-17%	-9%	-0.8%	O=c1c(-c2ccccc2)c(O)c2c(n1-c1ccccc1)CCCC2
·	·	0%	3.5%	O=C(Nc1ccc(NC(=S)NC(=O)C(c2ccccc2)c2ccccc2)cc1)c1ccccc1
·	4%&9%	-1%	-1.7%	CCC(C(=O)NCc1ccco1)n1nc(C)c2c(C)n(-c3ccc(C)cc3)nc2c1=O (stereo not given)
·	·	6%	-1.8%	Fc1ccc2cnc(-c3ccccc3)cc2c1
·	-2%	?	?	CC1(C)CC(=O)C=C(Nc2cccc(F)c2)C1
-2	-51%	-6%	-1.6%	CCc1ccc(N2Cc3ccccc3C2)cc1
-6	?	1%	3.1%	NC(N)=N/N=C/c1ccc(OCc2ccccc2Cl)cc1
?	-7%	-2%	?	CCC1Cc2c(nc(N)c3c(N)nc(N4CCCCC4)c(C#N)c23)O1 (stereo not given)

6 structures from above, arranged by molar mass, low to high:
GLA inh pH 4.5	miR-21 reporter	Rango release inh	Rango complex inh	compound
8	-4%	15%	2.4%	COC(=O)N/N=C/c1cccnc1
·	·	6%	-1.8%	Fc1ccc2cnc(-c3ccccc3)cc2c1
·	-1%	-25%	?	Cc1ccnc(SC2CC(=O)N(c3ccc(F)cc3)C2=O)n1 (stereo not given)
·	1%	15%	-4.8%	CC(C)(CO)CN1CCC(n2nccc2NC(=O)C2CCCC2)CC1
·	4%&9%	-1%	-1.7%	CCC(C(=O)NCc1ccco1)n1nc(C)c2c(C)n(-c3ccc(C)cc3)nc2c1=O (stereo not given)
·	-11%	1%	1.7%	COc1cccc(C2c3[nH]c4ccccc4c3C[C@H]3C(=O)N(CCCO)CC(=O)N23)c1OC (stereo not given in full)

Additional entries.
GLA inh pH 4.5	miR-21 reporter	Rango release inh	Rango complex inh	compound
6	-31%	12%	0.1%	O=C(CCS(=O)(=O)c1cccs1)N1CCCC1
-3	-13%	5%	-3.1%	CCCSc1nnc(-c2ccccc2NC(=O)CC)c(=O)[nH]1
5	-17%	-3%	4.0%	CCn1cc([N+](=O)[O-])c(C(=O)Nc2ccc(Br)cn2)n1
·	-14%	8%	1.5%	CCOC(=O)c1c(C)[nH]c(C)c1S(=O)(=O)NCC1CCN(Cc2cccc(Cl)c2)CC1
-13	-23%	-6%	0.0%	Cc1nc2ccc(NC(=O)c3cccnc3)cc2s1
2	0%	11%	-1.3%	COc1ccccc1OCCC(=O)OCC(=O)Nc1ccc(Br)cc1F
-6	-4%	-12%	-0.4%	O=C(NC(=S)NC1C2CC3CC(C2)CC1C3)C12CC3CC(CC(C3)C1)C2 (stereo not given)
·	·	11%	0.1%	CCC(=O)c1ccc(OCC(=O)Nc2nc(C)cs2)cc1
18	-2%	?	?	COc1ccc(-c2cc(C(F)F)n3ncc(C(=O)n4ccnc4C)c3n2)cc1
-3	-19%	3%	0.9%	COC(=O)c1cccc(-n2c(C)cc(C=O)c2C)c1C
·	·	?	-1.4%	COc1ccccc1N(CC(=O)Nc1ccccc1)S(=O)(=O)c1cccs1
-11	-6%	6%	1.8%	O=C(Nc1nnc(-c2ccccn2)o1)c1cccc(Br)c1
·	3%	3%	-3.6%	CC(C)(C)NC(=O)CN(C(=O)C(=O)Nc1ccc2c(c1)OCCO2)N1CCOCC1
·	-23%	-1%	-3.1%	COc1cc(/C=C/c2ccc3cccc(O)c3n2)cc(Cl)c1OC
-10	-1%	8%	-2.0%	O=C(Cc1ccc([N+](=O)[O-])cc1)N1N=C(c2ccncc2)CC1(O)C(F)(F)F (stereo not given)
-9	-8%	?	?	CC(C)NC(=O)/C(C#N)=C\c1ccc(N(C)C)o1
-6	-7%	1%	-1.6%	CCCCn1c(C)cc2cc(O)ccc21
·	6%	-1%	10%	Cc1nnc(NC(=O)C2CCN(C(=O)c3ccco3)CC2)s1
·	·	7%	-0.3%	O=C(Nc1ccc(F)c(Cl)c1)c1ccccc1NC(=O)C1CCCCC1C(=O)O (stereo not given)
-2	0%	16%	2.3%	CN(C)C(=O)N1CCC(C(=O)NCC2CCCO2)CC1 (stereo not given)
-7	-8%	7%	-0.8%	O=C(N/N=C/c1ccc(-c2cccc([N+](=O)[O-])c2)o1)c1cccs1
-23	-98%	3%	-0.7%	O=C(O)c1ccc(N/N=C/C=C/c2ccccc2[N+](=O)[O-])cc1
-9	-18%	-8%	1.3%	Cn1nc(-c2ccc(NCCO)c([N+](=O)[O-])c2)c2ccccc2c1=O
·	·	21%	2.2%	COCCN(C(=O)COC(=O)c1cc(C)n(-c2ccccc2)c1C)c1c(N)n(Cc2ccccc2)c(=O)[nH]c1=O
·	23%	-1%	-1.1%	COc1ccc(CCN2CCCn3c2nc2c3c(=O)[nH]c(=O)n2C)cc1OC
9	7%	8%	-1.8%	CC(C(=O)O/N=C(\N)c1cccnc1)c1ccc([N+](=O)[O-])cc1 (stereo not given)
·	-11%	1%	5.1%	O=[N+]([O-])c1cccc(-c2nnc3cccc(Cl)n23)c1
·	2%	26%	5.1%	CN(C)Cc1c(C(=O)N/N=C/c2ccccc2OCc2c(F)cccc2Cl)nnn1-c1nonc1N
·	·	13%	?	O=C1OCCN1N1CCOC1=O
6	-2%	14%	-0.8%	CC(=O)Nc1cccc(N2C(=O)CCC2=O)c1

Four entries from above, as labelled records:
molecule: O=C(Cc1ccc([N+](=O)[O-])cc1)N1N=C(c2ccncc2)CC1(O)C(F)(F)F (stereo not given)
  GLA inh pH 4.5: -10
  miR-21 reporter: -1%
  Rango release inh: 8%
  Rango complex inh: -2.0%
molecule: CC(C)NC(=O)/C(C#N)=C\c1ccc(N(C)C)o1
  GLA inh pH 4.5: -9
  miR-21 reporter: -8%
  Rango release inh: ?
  Rango complex inh: ?
molecule: CCCCn1c(C)cc2cc(O)ccc21
  GLA inh pH 4.5: -6
  miR-21 reporter: -7%
  Rango release inh: 1%
  Rango complex inh: -1.6%
molecule: Cc1nnc(NC(=O)C2CCN(C(=O)c3ccco3)CC2)s1
  GLA inh pH 4.5: ·
  miR-21 reporter: 6%
  Rango release inh: -1%
  Rango complex inh: 10%

Following part:
GLA inh pH 4.5	miR-21 reporter	Rango release inh	Rango complex inh	compound
-8	2%	4%	-9.7%	O=S(=O)(Nc1ccncc1Cl)c1cc(Cl)ccc1Cl
-16	8%	-3%	1.3%	CCOc1cc(C(=O)N2CCN(C/C=C/c3ccccc3)CC2)cc(OCC)c1OCC
·	-3%	-27%	?	COc1ccc(CCn2c(C)cc(C(=O)COC(=O)c3ccc(NC(=O)CC#N)cc3)c2C)cc1
·	-14%	3%	-0.2%	COc1ccc(-c2cc(=O)oc3cc(OCC(=O)NCC4CCC(C(=O)O)CC4)ccc23)cc1 (stereo not given)
·	·	1%	1.6%	Cc1cc(NC(=O)C2CCN(C(=O)c3ccco3)CC2)ccc1Br
0	-2%	-13%	2.6%	CCN(CC)C(=O)Cc1cc(C(=O)O)c2ccccc2n1
·	·	0%	2.8%	OC[C@H]1O[C@H](OC[C@H]2O[C@H](OC[C@H]3O[C@H](O[C@]4(CO)O[C@H](CO)[C@@H](O)[C@@H]4O)[C@H](O)[C@@H](O)[C@@H]3O)[C@H](O)[C@@H](O)[C@H]2O)[C@H](O)[C@@H](O)[C@H]1O
-1	-9%	-2%	-2.4%	CCOC(=O)c1c(C)nc2sc3c(=O)n(-c4ccc(C(C)=O)cc4)cnc3c2c1-c1ccc(OC)cc1
·	-1%	-5%	1.3%	CCOC(=O)CNC(=S)N(CCCN1CCN(C)CC1)Cc1cccs1
·	·	1%	-0.9%	Cn1ccc(NC(=O)c2ccc(Cl)cc2)n1
12	-2%	2%	-0.6%	COCCCNC(=O)CSC1=Nc2ccccc2C2=NC(c3ccccc3)C(=O)N12 (stereo not given)
3	-7%	22%	-3.8%	CCOC(=O)c1c(N2C(=O)Nc3ccccc3N2O)n[nH]c1-c1cccc(Cl)c1
0	-2%	-3%	-5.3%	Cc1cc(C)cc(NC(=S)NCc2cccs2)c1
3	-13%	0%	0.3%	CCOC(=O)c1cc(CNC(=O)c2c(C)oc3c2CCCC3)c(C)o1
·	·	-5%	?	COc1cccc(NC(=O)c2cccc(S(=O)(=O)N3CCN(Cc4ccccc4)CC3)c2)c1
2	-11%	0%	0.2%	Cc1ccc(C(=O)CSc2ccc(-c3cccnc3)nn2)cc1
3	-5%	1%	-1.0%	O=c1[nH]c(SCc2cccc(Cl)c2)nc2ccccc12
4	0%	-24%	4.0%	CCCN1C(=O)c2ccccc2NC1c1ccc(OC)cc1OC (stereo not given)
-4	25%	-23%	-5.0%	Cc1cc(Cl)ccc1NC(=S)NC(C)(C)C
·	·	-11%	1.8%	CC(=O)N1CCN(S(=O)(=O)c2cccc(C(=O)NNC(=O)COc3ccc(F)cc3)c2)CC1
·	0%	5%	3.6%	COc1ccc(N2CCN(C(=O)NC(=O)c3ccc(Cl)cc3)CC2)cc1
·	·	16%	-0.5%	Cc1cc(C(C)(C)C)ccc1OC(=O)C1=CC=CN2CCS(=O)(=O)N=C12
·	·	-1%	0.0%	Cc1cc(=O)oc2cc(NC(=O)C(C)N3C(=O)C4CCCCC4C3=O)ccc12 (stereo not given)
·	10%	13%	0.0%	O=C(Nc1ccc(C(=O)OC2CCCCC2)cc1)c1ccncc1
7	-37%	-2%	0.4%	Clc1ccsc1-c1ccc2ccccc2n1
4	-11%	-27%	?	c1ccc(Cc2nnc3sc(-c4ccncc4)nn23)cc1
-17	-6%	0%	-5.6%	COCCn1c(=NC(=O)c2nc3ccccc3s2)sc2cc(S(C)(=O)=O)ccc21
·	11%	0%	2.8%	Cc1sc2ncn(CC(=O)NCCCC(=O)N3CCN(c4ccccc4F)CC3)c(=O)c2c1C
